Sa ugtP lethal – growth inhibition of S. aureus ugtP deletion strain | S. aureus RN4220 ugtP deletion, OD600 growth, 16 h; some inactives read as strong as hits | growth inhibition, % (no concentration beside the values) | actives 0.54% (n = 330,000);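 active = z-score under -3 and OD600 up to 0.15 on both plates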;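 also: plate controls were untreated wells for no effect and antibiotic for full effect; wells of about 80 µL received 100 nL stock; the first replicate is given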
Autofluor counter – flagged as autofluorescent in microsphere protease counterscreen; compound autofluorescence counterscreen, microsphere flow cytometry; active compounds read high; fluorescence intensity (test concentration not listed); actives 3.1% (n = 360,000); AID 624483;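 active = at least 3 SD above the mean of all compounds, about 16000 in these data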;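 also: 100 nL of 1 mM stock went into each well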
BJeLR lethal – kills HRASV12-expressing BJeLR cells | BJeLR (HRASV12) viability, CellTiter-Glo ATP luminescence, 48 h; reference of the scale not given here | inhibition, % (concentration not given with the values) | actives 0.17% (n = 300,000);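 active = replicate mean above 50%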;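 also: 50 nL library stock added to about 25 µL; numbers are from one replicate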
RN4220 kill – kills Staphylococcus aureus RN4220; S. aureus RN4220 growth, OD600, 16 h; inhibition, % (test concentration not listed); actives 0.33% (n = 330,000); AID 1259311;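 active = z-score of -3 or lower and OD600 up to 0.18 on both plates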;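 also: plate controls were untreated cells for no effect and reference antibiotic for full effect; stock transfer was 100 nL into about 80 µL; one replicate is shown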
Mtb hypoxia inh – reduces hypoxia-regulated biosensor signal in M. tuberculosis; M. tuberculosis hypoxia-regulated fluorescent reporter, fluorescence; fluorescence inhibition, % (no concentration beside the values); actives 0.1% (n = 300,000); AID 1159583;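 active = 35 to 45% if threefold the growth effect, above 45% if 1.5-fold the growth effect; inactive = the rest, general growth blockers included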;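 also: wells of about 50 µL received 100 nL stock; 0% = vehicle wells and 100% = reference inhibitor wells; whole bacteria with a GFP reporter of the hypoxia response; strong numbers were not always called active; many hits fall short of the cut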
PrP UTR inh – inhibition of PrP 5' UTR reporter expression. cell-based PrP 5' UTR mRNA reporter, plate reader. inhibition, % (test concentration not listed). actives 0.35% (n = 340,000);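 active = every replicate at 50% or more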;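 also: 0 = median of the neutral control wells; tested in H4 reporter cells; numbers are from one replicate; inactives centre near -14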
Mtb hypoxia inh growth – further read-out of Mtb hypoxia inh, marked with its call; growth inhibition, %; measured here: M. tuberculosis growth (absorbance);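 0% = vehicle and 100% = reference antibiotic; read after six days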
Starred values were filed as active, the others as inactive; · = not tested or not shown.

1. CCNC(=O)COC(=O)c1cc(S(=O)(=O)N2CCCc3ccccc32)ccc1Cl
2. CCC(C)n1cnc2c(=O)oc3ccccc3c21 (centres undefined)
3. COc1ccc(C(=O)Nc2ccc3ccccc3n2)c(OC)c1OC
4. O=C(CSc1nc(O)c(C2CCCCC2)c(=O)[nH]1)Nc1ccc(F)cc1
5. Cc1cccnc1NC(=O)c1ccc2c(c1)NC(=O)C(C)S2 (centres undefined)
6. O=C(O)COc1ccccc1Cc1ccccc1
Screen / compound no.,1,2,3,4,5,6
Autofluor counter,3262,9275,4407,3479,·,2483
Sa ugtP lethal,2,-3,1,·,10,17
RN4220 kill,3.5,2.6,0.2,·,-0.9,19
PrP UTR inh,-8,-1,29,-20,-14,-19
BJeLR lethal,-2,-8,3,1,-20,-4
Mtb hypoxia inh growth,7,2,9,·,-4,0
Mtb hypoxia inh,15,1,8,·,-1,8

7. CN(C)S(=O)(=O)c1cccc(NC(=O)CN2C(=O)C3C4C=CC(C4)C3C2=O)c1 (centres undefined)
8. CCOC(=O)NC(=O)CSc1ccc2ccccc2n1
9. COc1ccc(CCNC(=O)C2CCCN(C(=O)c3ccc(Cl)cc3)C2)cc1 (centres undefined)
10. N#Cc1cn(CC(=O)O)c2ccccc12
11. O=C(CCCc1ccccc1)Nc1nccs1
12. Cc1nc(-c2cccc(NC(=O)Cc3ccccc3)c2)cs1
Screen / compound no.,7,8,9,10,11,12
Autofluor counter,2453,3306,5741,3358,5104,3277
Sa ugtP lethal,6,1,5,2,6,10
RN4220 kill,3.1,0.4,-1.8,3.4,3.8,-3.0
PrP UTR inh,-34,-18,-7,-1,-24,-20
BJeLR lethal,3,-4,-13,-6,-6,-11
Mtb hypoxia inh growth,10,7,4,1,7,0
Mtb hypoxia inh,6,2,5,2,-7,6

13. COc1ccc(C(CNC(=O)c2cccc(S(=O)(=O)Nc3ccc(F)cc3)c2)N2CCOCC2)cc1 (centres undefined)
14. COc1ccc(NC(=O)CCCCn2c(=O)[nH]c3ccccc3c2=O)cc1
15. CCOC(=O)CCC(NC(=O)CCCCCCCC(=O)NC(CCC(=O)OCC)C(=O)OCC)C(=O)OCC (centres undefined)
16. O=C(O)CCNS(=O)(=O)c1ccc(Oc2ccccc2)cc1
17. COc1ccccc1C(CNC(=O)C(CCSC)NC(=O)c1ccccc1Cl)N1CCCC1 (centres undefined)
18. CCOC(=O)C(C)NC(=O)CCc1nnc2ccc(N3CCC(C)CC3)nn12 (centres undefined)
Screen / compound no.,13,14,15,16,17,18
Autofluor counter,3184,4086,2187,10539,7979,4017
Sa ugtP lethal,7,-4,0,7,3,1
RN4220 kill,8.2,9.0,-5.9,2.4,2.1,1.5
PrP UTR inh,-10,-31,-16,5,8,-17
BJeLR lethal,·,-1,4,-7,·,1
Mtb hypoxia inh growth,3,7,7,5,9,12
Mtb hypoxia inh,4,12,-5,1,-2,-6

19. O=C(CSC(=S)N1CCOCC1)Nc1ccc(S(=O)(=O)Nc2ncccn2)cc1
20. CC(C)(C)NC(=O)CSc1nnc(Cc2ccccc2)n1CC1CCCO1 (centres undefined)
21. COc1ccc(NC(=O)N2CCN(C(=O)Nc3ccc(OC)cc3)CC2)cc1
22. CC1Oc2cc3c(-c4c(O)cc(O)c5c(O)c6c(cc45)OC(C)C(C)C6=O)c(O)cc(O)c3c(O)c2C(=O)C1C (centres undefined)
23. CNC(=S)N(CCc1c(C)[nH]c2ccc(C)cc12)Cc1cccnc1
24. CCCN(CCC)c1nc(Cl)nc(NCc2ccco2)n1
Screen / compound no.,19,20,21,22,23,24
Autofluor counter,5984,4326,3399,5123,5463,4276
Sa ugtP lethal,2,-2,3,98*,2,17
RN4220 kill,-0.2,-4.5,3.1,98*,3.0,-0.8
PrP UTR inh,3,1,-1,39,-39,-24
BJeLR lethal,3,-7,-4,0,2,5
Mtb hypoxia inh growth,14,0,-4,·,-6,1
Mtb hypoxia inh,10,-2,-11,·,-5,4

25. Cc1ccc(C(=O)N2Cc3ccccc3CC2C(=O)O)cc1 (centres undefined)
26. O=C(CO/N=C/c1cccc([N+](=O)[O-])c1)NC1CCCCC1
27. COc1ccc(SCCc2nnc(-c3ccccc3)o2)cc1
28. O=C1CC(C(=O)Nc2ccc(Br)cc2)C2(CCCC2)O1 (centres undefined)
29. CCCCn1c(N)c(N(CC)C(=O)CSCc2c(C)noc2C)c(=O)[nH]c1=O
30. CC(C)(C)OC(=O)[C@H](Cc1ccccc1)NC(=O)c1nc[nH]c1C(=O)N1CCc2ccccc2C1
Screen / compound no.,25,26,27,28,29,30
Autofluor counter,8966,2557,3480,·,5460,2937
Sa ugtP lethal,5,·,-6,6,1,·
RN4220 kill,1.8,·,4.8,5.7,8.6,·
PrP UTR inh,2,-13,-7,·,-16,2
BJeLR lethal,1,5,-1,12,0,-7
Mtb hypoxia inh growth,0,·,12,1,-1,·
Mtb hypoxia inh,7,·,1,3,3,·

31. COc1ccccc1NC(=O)COC(=O)CC(C)(C)CC1=NS(=O)(=O)c2ccccc2N1
32. CCn1c(COc2ccccc2)nnc1SCC(=O)NCc1ccco1
33. COc1ccc(N2CCN(C(=O)C3CCN(S(=O)(=O)c4ccc5c(c4)oc(=O)n5C)CC3)CC2)cc1
34. O=C(Nc1c(F)cc(F)cc1Br)c1cc(-c2ccccc2)on1
35. Cc1nc(C)n(C(Oc2ccc(Cl)cc2Cl)C(=O)C(C)(C)C)n1 (centres undefined)
36. CCCCC(=O)Nc1cc(Cl)ccc1C(=O)O
Screen / compound no.,31,32,33,34,35,36
Autofluor counter,5564,4258,4933,3665,3950,3926
Sa ugtP lethal,11,0,6,1,4,9
RN4220 kill,-4.2,3.0,4.8,2.9,2.8,15
PrP UTR inh,2,-20,-11,-37,-12,-22
BJeLR lethal,-4,-5,-4,-5,-10,-4
Mtb hypoxia inh growth,1,0,0,8,-9,-1
Mtb hypoxia inh,2,10,-2,5,11,5

Some of the entries so far, bar-delimited:
no. | SMILES | Autofluor counter | Sa ugtP lethal | RN4220 kill | PrP UTR inh | BJeLR lethal | Mtb hypoxia inh growth | Mtb hypoxia inh
21 | COc1ccc(NC(=O)N2CCN(C(=O)Nc3ccc(OC)cc3)CC2)cc1 | 3399 | 3 | 3.1 | -1 | -4 | -4 | -11
22 | CC1Oc2cc3c(-c4c(O)cc(O)c5c(O)c6c(cc45)OC(C)C(C)C6=O)c(O)cc(O)c3c(O)c2C(=O)C1C (centres undefined) | 5123 | 98* | 98* | 39 | 0 | · | ·
23 | CNC(=S)N(CCc1c(C)[nH]c2ccc(C)cc12)Cc1cccnc1 | 5463 | 2 | 3.0 | -39 | 2 | -6 | -5
24 | CCCN(CCC)c1nc(Cl)nc(NCc2ccco2)n1 | 4276 | 17 | -0.8 | -24 | 5 | 1 | 4
25 | Cc1ccc(C(=O)N2Cc3ccccc3CC2C(=O)O)cc1 (centres undefined) | 8966 | 5 | 1.8 | 2 | 1 | 0 | 7
26 | O=C(CO/N=C/c1cccc([N+](=O)[O-])c1)NC1CCCCC1 | 2557 | · | · | -13 | 5 | · | ·
27 | COc1ccc(SCCc2nnc(-c3ccccc3)o2)cc1 | 3480 | -6 | 4.8 | -7 | -1 | 12 | 1
28 | O=C1CC(C(=O)Nc2ccc(Br)cc2)C2(CCCC2)O1 (centres undefined) | · | 6 | 5.7 | · | 12 | 1 | 3
29 | CCCCn1c(N)c(N(CC)C(=O)CSCc2c(C)noc2C)c(=O)[nH]c1=O | 5460 | 1 | 8.6 | -16 | 0 | -1 | 3
30 | CC(C)(C)OC(=O)[C@H](Cc1ccccc1)NC(=O)c1nc[nH]c1C(=O)N1CCc2ccccc2C1 | 2937 | · | · | 2 | -7 | · | ·
31 | COc1ccccc1NC(=O)COC(=O)CC(C)(C)CC1=NS(=O)(=O)c2ccccc2N1 | 5564 | 11 | -4.2 | 2 | -4 | 1 | 2
32 | CCn1c(COc2ccccc2)nnc1SCC(=O)NCc1ccco1 | 4258 | 0 | 3.0 | -20 | -5 | 0 | 10
33 | COc1ccc(N2CCN(C(=O)C3CCN(S(=O)(=O)c4ccc5c(c4)oc(=O)n5C)CC3)CC2)cc1 | 4933 | 6 | 4.8 | -11 | -4 | 0 | -2

High-throughput results from PubChem BioAssay.
